StopGo RLuc = lowers the Renilla signal of an FMDV 2A StopGo reporter. AID 1745857. Potency, µM (highest dose often 57.5 µM), for the others: at the top dose signal change, negative = less light. HEK cells with a luciferase reporter of 2A StopGo recoding. 120,000 compounds, 0.32% hits; active means well fitted falling curve with a large enough effect; inconclusive means small, poorly fitted or top-dose-only effect; inactive means no such curve, though single readings can be large or run the other way; further: nearly all actives have a fitted effect of over 55% in size; overnight with compound
StopGo FLuc = lowers the firefly signal of an FMDV 2A StopGo reporter; 120,000 compounds, 0.23% hits; Potency, µM (top dose mostly 57.5 µM), for the others: top-dose signal change, negative = less light; HEK cells with a luciferase reporter of 2A StopGo recoding; active = well fitted falling curve with a large enough effect; inconclusive = small, poorly fitted or top-dose-only effect; inactive = no such curve, though single readings can be large or run the other way; further: nearly all actives have a fitted effect of over 60% in size; overnight with compound
Active calls of the source: *; ? = inconclusive; & = joins results of further samples; [ ] = remark or other dose. On the % scale 0 is the no-effect control and ±100 the full control effect; potency means the concentration at half of the fitted maximal effect. The list is partial, so the mix of outcomes need not match the whole.

SMILES	StopGo RLuc	StopGo FLuc
COc1ccccc1C(=O)N1CCC2(CC1)OCCN2S(=O)(=O)c1ccc(F)c(C)c1	75.1%[activator]	3.2%
O=C(NCc1ccc(Cl)cc1)C(=O)Nc1cccc2[nH]ccc12	0.0%	145.9%[activator]
CCn1cc2nc(SCC(=O)Nc3ccccc3F)n(Cc3ccc(C)cc3)c(=O)c2n1	23.7%	11.0%
CC(C)(C)N1CC(c2nc3ccccc3n2Cc2cccc3ccccc23)CC1=O (centres undefined)	10.5%	-7.7%
CCCCn1c(=O)n(CC(=O)Nc2ccc3c(c2)CCC3)c(=O)c2c1ncn2Cc1ccco1	-6.0%	-17.0%
CCN1CCN(Cc2cc(=O)oc3cc(C)cc(O)c23)CC1	-14.5%	22.1%
COc1ccc(N2CCN(C(=O)CCCCn3c(=O)[nH]c4ccsc4c3=O)CC2)cc1	26.0%	-7.4%
Cc1ccc(NC(=O)CCc2c[nH]c3ccccc23)cc1	3.5%	148.9%[activator]
COc1ccccc1NC1(c2nnnn2-c2ccccc2)CCCCC1	8.5%	8.5%
Cc1noc2nc(-c3ccccc3F)cc(C(=O)NCc3ccc(N4CCOCC4)nc3)c12	6.4%	8.8%
Cc1cc(C)c(SCC(=O)NC(C)(C)C)c(C)c1	15.1%	10.2%
O=C1CC(=O)Nc2cc(S(=O)(=O)N3CCOc4ccc(Cl)cc43)ccc2N1	1.1%	-11.8%

Another view of two compounds above:
Order of results – StopGo RLuc | StopGo FLuc
COc1ccc(N2CCN(C(=O)CCCCn3c(=O)[nH]c4ccsc4c3=O)CC2)cc1
  26.0% | -7.4%
Cc1ccc(NC(=O)CCc2c[nH]c3ccccc23)cc1
  3.5% | 148.9%[activator]

(further entries)
SMILES	StopGo RLuc	StopGo FLuc
CN(CC(=O)Nc1c(Cl)cccc1Cl)C(=O)c1cccc(-n2cccc2)c1	9.2%	-9.6%
COc1cc(NC(=O)c2ccc(C)cc2)ccc1NC(=O)c1cc2ccccc2o1	-7.5%	9.0%
COc1cc(-c2ccno2)ccc1S(=O)(=O)N1CCN(c2ccc(F)cc2)CC1	54.2%&166.4%[activator]	?
CCOc1ccc(C(=O)Nc2ccc(-c3nc4cc(C)ccc4o3)cc2)cc1	-11.2%&2.0%	22.4%&159.0%
O=S(=O)(Nc1cccc(-c2ccc(N3CCOCC3)nn2)c1)c1ccccc1C(F)(F)F	128.9%[activator]	160.4%[activator]
CCN(C(=O)c1sc2nc3n(c(=O)c2c1C)CCCCC3)c1ccc(OC)cc1	-1.1%	-19.3%
CC1CCN(C(=O)CSc2nnc(-c3ccco3)n2N)CC1	-9.6%	-2.0%
c1cncc(-c2nc(N3CCC3)c3ccccc3n2)c1	24.6%	0.0%
COc1ccc2nc(NC(=O)c3nc(SCc4cccc(C)c4)ncc3Cl)sc2c1	-8.3%	-6.9%
COc1ccc(/C=C/C(=O)C2(C)CCCCC2)cc1	10.6%	74.4%[activator]
Cc1ccc2nc(-c3ccccc3)cc(C(=O)Nc3cccnc3)c2c1	-4.7%	4.5%
CCOC(=O)c1ccc(NC(=O)C2CCN(C(=O)N3CC(C)Oc4ccc(C)cc43)CC2)cc1 (centres undefined)	28.7%	1.7%
O=C(NCc1ccccc1Cl)C(=O)NCC(c1ccco1)S(=O)(=O)c1cccs1 (centres undefined)	12.9%	-27.0%
Cc1cc(C)n(-c2nnc(Nc3cc(Cl)ccc3C)c3ccccc23)n1	-11.0%	-14.0%
CC(C)NC(=O)c1ccc(Cn2cnc3ccccc3c2=O)cc1	-7.1%	9.4%
O=C(Nc1ccc2oc(-c3ccc(Cl)cc3)nc2c1)c1ccc2ccccc2c1	13.2%	33.3%[activator]
CCCn1c(SCC(=O)Nc2ccc(F)cc2)nc(O)cc1=O	-10.7%	-3.2%
C/C=C/Oc1ccc(C(=O)/C(=C\c2ccncc2)c2nc3ccccc3o2)cc1	?	?
Cc1ccccc1-c1ccnc2[nH]n(-c3ccccc3)c(=O)c12	-9.0%	-4.8%
CCOc1ccc(S(=O)(=O)NCC(=O)O)cc1	38.5%[activator]	0.0%
CN1CCN(c2nc3ccccc3nc2C(C#N)C(=O)NCc2ccccc2)CC1 (centres undefined)	-1.1%	4.1%
CC(CCc1ccccc1)NC(=O)c1ccc2c(c1)N(Cc1ccccc1)C(=O)CS2=O (centres undefined)	2.2%	-2.9%
CCCS(=O)(=O)NCc1nnnn1-c1ccccc1	75.4%[activator]	96.4%[activator]
CC1(C)C2CC=C(/C=N/NC(=S)Nc3ccc(SC(F)F)cc3)C1C2 (centres undefined)	14.8%	39.7%[activator]
CCOC(=O)Cc1ccc(NC(=O)N2CCC(CN3CCCCCC3)CC2)cc1	-12.1%	-19.7%
CN(Cc1ccccc1)C(=O)c1cc(-c2ccccn2)nc2ccccc12	294.4%[activator]	24.1%
CC(C)CN(CC(C)C)C(=O)CCS(=O)(=O)c1cc2c(cc1Cl)NC(=O)CO2	-5.3%	0.5%
CC(CN1CCOCC1)OC(=O)c1cccc(F)c1 (centres undefined)	-7.3%	-0.5%
O=[N+]([O-])c1ccc(Oc2cccc(C(F)(F)F)c2)c2ccncc12	0.0%	-11.5%
COc1ccc(C2CC(=O)c3cc(-c4nc(-c5cccc([N+](=O)[O-])c5)cs4)c(=O)n(-c4ccc(F)cc4)c3C2)cc1 (centres undefined)	-8.7%	-9.4%
Cn1c2ccccc2c2nnc(SCc3ccc(F)cc3Cl)nc21	2.5%	-3.7%
Cc1ccc(C(=O)NCCN2CCc3ccccc3C2)cc1F	-11.0%	-16.7%
O=C1CC(/C=C/c2ccccc2)Cc2nc(N3CCCC3)ncc21 (centres undefined)	-27.4%	-31.5%
CC(NC(=O)CSc1nnc(COc2ccccc2Cl)n1C)c1cccc2ccccc12 (centres undefined)	77.7%[activator]	-4.0%
Cc1[nH]nc2c1C(c1ccc(-c3ccc(Cl)cc3)o1)SCC(=O)N2 (centres undefined)	3.2%	28.8%
Cc1ccc(-c2nc(CCNC(=O)Nc3cc(F)c(N(C)C)c(F)c3)co2)cc1	-24.4%	0.0%
CC1(C)CC(NC(=O)C2CCN(S(=O)(=O)c3ccc(C#N)cc3)CC2)CC(C)(C)N1	-16.3%	-12.7%
CC(=O)NC12CC3CC(CC(C3)C1)C2	0.3%	12.7%
Cc1ccc(Cn2nnc3c(=O)n(Cc4nc(-c5cccc(C(F)(F)F)c5)no4)cnc32)cc1	-8.9%	-2.4%
CCOc1ccccc1Cn1c(SCC(=O)NC(C)(C)C)nc2c(sc3ncccc32)c1=O	4.0%	14.3%
CCOc1ccc(C(=O)NCCn2cc(SCC(=O)NCCc3ccc(OC)c(OC)c3)c3ccccc32)cc1	37.1%[activator]	10.1%
CCCCN(CCCC)S(=O)(=O)c1[nH]ncc1C(=O)OCC	11.6%	-6.2%
CNC(=O)C(C)SCc1ccc(Br)cc1 (centres undefined)	3.7%	15.7%
Cc1cccc(CNC(=O)CCCNC(=O)C(C)(C)C)c1	4.3%	7.1%
Cc1cc(C)c(C)c(S(=O)(=O)N2CCN(C(=O)CCc3ncc(-c4ccc(F)cc4)o3)CC2)c1C	-8.6%	44.9%[activator]
Cc1cc(C)c(NC(=O)c2cc(=O)c3ccccc3o2)c(Cl)c1	-11.3%	0.0%
COc1ccc(-c2nnc3sc(-c4cc(C(C)(C)C)nn4C)nn23)cc1OC	16.7%	0.0%
CCN1c2ccccc2-c2nc(SCC(=O)Nc3c(C)cc(C)cc3C)ncc2S1(=O)=O	-4.3%	-17.6%
Cc1ccc(CN2CCN(c3nc4c(c(=O)[nH]c(=O)n4C)n3C/C=C/c3ccccc3)CC2)cc1	2.8%	11.2%
CCOc1ccc(NC(=O)C(C)Sc2ncnc3nc[nH]c23)cc1 (centres undefined)	3.5%	17.3%
Cc1cccc(OC(=O)c2cc(-c3ccc4c(c3)OCCO4)on2)c1C	1.0%	15.6%
COc1cccc2ccn(CC(=O)NCc3ccccc3)c12	10.7%	13.4%
CNC(=O)C(C)Sc1nc(-c2ccccc2)c(-c2ccccc2)o1 (centres undefined)	13.4%	9.2%
CC(C)Sc1oc(-c2ccco2)nc1S(=O)(=O)c1ccc(F)cc1	13.6%	-13.4%
O=C(CCC1N=C2c3ccccc3N=C(SCc3ccccc3F)N2C1=O)NC1CCCCC1 (centres undefined)	-0.2%	-22.7%
COc1ccc(CNC(=O)NCc2cccc(OC)c2)cc1	0.8%	34.0%[activator]
COc1ccc(CCNC(=O)c2ccc3c(c2)N(Cc2ccc(Cl)cc2)CCS3)c(OC)c1	22.9%	3.6%
COc1ccc(OC)c(NC(=O)c2noc3c2CCCC3)c1	8.7%	57.4%[activator]
Cc1ccccc1-n1c(SCC(=O)NC(C)c2cc3ccccc3o2)nnc1N1CCOCC1 (centres undefined)	6.7%	-0.8%
Cc1cccc(NC(=O)CSc2nccn2Cc2ccccc2Cl)c1C	34.1%[activator]	20.3%
New compounds follow.
SMILES	StopGo RLuc	StopGo FLuc
COc1cccc(/C=C/C(=O)c2cc(C)ccc2C)c1OC	?	0.0%
CCc1cccc(N2C(=O)CS(=O)(=O)C23C(=O)N(Cc2ccccc2)c2ccc(C)cc23)c1 (centres undefined)	-1.0%	-7.9%
O=C(CSc1nnnn1-c1ccccc1)N1CCN(CC(=O)N2CCCC2)CC1	-13.5%	-9.3%
C=CCn1c(SCCc2ccccc2)nc2c1c(=O)n(C)c(=O)n2C	-2.8%	4.4%
O=c1oc2ccc3ccccc3c2cc1-c1nnc(Nc2ccccc2)s1	-15.8%	-16.8%
Cc1ccc(CSc2nc3cccnc3n2Cc2ccc(C(=O)NC3CCCCC3)cc2)cc1	0.8%	115.4%[activator]
O=C(c1cn(-c2ccccc2Br)nn1)N1CCc2ccccc2C1	39.6%[activator]	63.0%[activator]
COC(=O)[C@H](CC(C)C)N(Cc1cn(Cc2ccc(C)cc2)nn1)S(=O)(=O)c1ccc(F)cc1Br	?	?
CCN[C@H]1C[C@H](C)S(=O)(=O)c2sc(S(N)(=O)=O)cc21	-2.7%	-5.4%[11.5 µM]
CC(OC(=O)Cn1[nH]c(=O)c2ccccc2c1=O)C(=O)Nc1ccc(F)cc1 (centres undefined)	1.5%	8.5%
Cc1cc2oc(C(=O)Nc3sc4c(c3C(=O)NCc3ccccc3)CCCC4)cc(=O)c2cc1C	-14.0%	-21.6%
CCN(CC)Cc1ccc(CNC(=O)c2occc2C)cc1	4.7%	17.8%
CCOC(=O)c1ccc(Oc2coc3cc(O)ccc3c2=O)cc1	7.3%	97.0%[activator]
Cc1cccc(Cn2c(NCCCN3CCOCC3)nc3c2c(=O)[nH]c(=O)n3C)c1	11.8%	9.9%

At a glance, some entries already given:
SMILES	StopGo RLuc	StopGo FLuc
COc1ccc(OC)c(NC(=O)c2noc3c2CCCC3)c1	8.7%	57.4%[activator]
Cc1ccccc1-n1c(SCC(=O)NC(C)c2cc3ccccc3o2)nnc1N1CCOCC1 (centres undefined)	6.7%	-0.8%
Cc1cccc(NC(=O)CSc2nccn2Cc2ccccc2Cl)c1C	34.1%[activator]	20.3%
COc1cccc(/C=C/C(=O)c2cc(C)ccc2C)c1OC	?	0.0%
CCc1cccc(N2C(=O)CS(=O)(=O)C23C(=O)N(Cc2ccccc2)c2ccc(C)cc23)c1 (centres undefined)	-1.0%	-7.9%
O=C(CSc1nnnn1-c1ccccc1)N1CCN(CC(=O)N2CCCC2)CC1	-13.5%	-9.3%
C=CCn1c(SCCc2ccccc2)nc2c1c(=O)n(C)c(=O)n2C	-2.8%	4.4%
O=c1oc2ccc3ccccc3c2cc1-c1nnc(Nc2ccccc2)s1	-15.8%	-16.8%
Cc1ccc(CSc2nc3cccnc3n2Cc2ccc(C(=O)NC3CCCCC3)cc2)cc1	0.8%	115.4%[activator]
O=C(c1cn(-c2ccccc2Br)nn1)N1CCc2ccccc2C1	39.6%[activator]	63.0%[activator]
COC(=O)[C@H](CC(C)C)N(Cc1cn(Cc2ccc(C)cc2)nn1)S(=O)(=O)c1ccc(F)cc1Br	?	?
CCN[C@H]1C[C@H](C)S(=O)(=O)c2sc(S(N)(=O)=O)cc21	-2.7%	-5.4%[11.5 µM]
CC(OC(=O)Cn1[nH]c(=O)c2ccccc2c1=O)C(=O)Nc1ccc(F)cc1 (centres undefined)	1.5%	8.5%
Cc1cc2oc(C(=O)Nc3sc4c(c3C(=O)NCc3ccccc3)CCCC4)cc(=O)c2cc1C	-14.0%	-21.6%
CCN(CC)Cc1ccc(CNC(=O)c2occc2C)cc1	4.7%	17.8%
CCOC(=O)c1ccc(Oc2coc3cc(O)ccc3c2=O)cc1	7.3%	97.0%[activator]
Cc1cccc(Cn2c(NCCCN3CCOCC3)nc3c2c(=O)[nH]c(=O)n3C)c1	11.8%	9.9%

Screening results as filed in PubChem.
